Ecoli rRNA inh = reduced GFP signal of wild-type E. coli, primary screen, bacterial rRNA inhibitor project, GFP/RFP fluorescence, OD600, single point; E. coli WT GFP vs humanized-ribosome RFP mutants, 24 h; active compounds read low; DMSO median 0, no signal -100; GFP signal change (wild-type ribosome), % (test concentration not listed); 350,000 compounds, 1.6% hits; AID 720706, 2013;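 active means significant combined selectivity score with lowered wild-type GFP, culture density cut under 30%, mutant RFP and density less affected; inactive means any of these conditions unmet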; further: one replicate is shown; some compounds called inactive have numbers as strong as hits
MLL AF4-AF9 inh = inhibitors of AF4 peptide binding to AF9, primary screen, biochemical, AlphaScreen, biotin-AF4 peptide, FLAG-AF9, single point; Protein AF-9 (Homo sapiens), P42568; inhibition, % at 10 µM; 350,000 compounds, 0.47% hits; AID 651704, 2012;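 active means every replicate reaching a set inhibition limit, whatever the replicate mean, cut at about 25% in these data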;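 further: 0% = plate neutral control median and 100% = total signal loss; the record names both 10 and 1 µM as test concentration; the first replicate is given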
Target sequence (P42568 whole entry, looked up): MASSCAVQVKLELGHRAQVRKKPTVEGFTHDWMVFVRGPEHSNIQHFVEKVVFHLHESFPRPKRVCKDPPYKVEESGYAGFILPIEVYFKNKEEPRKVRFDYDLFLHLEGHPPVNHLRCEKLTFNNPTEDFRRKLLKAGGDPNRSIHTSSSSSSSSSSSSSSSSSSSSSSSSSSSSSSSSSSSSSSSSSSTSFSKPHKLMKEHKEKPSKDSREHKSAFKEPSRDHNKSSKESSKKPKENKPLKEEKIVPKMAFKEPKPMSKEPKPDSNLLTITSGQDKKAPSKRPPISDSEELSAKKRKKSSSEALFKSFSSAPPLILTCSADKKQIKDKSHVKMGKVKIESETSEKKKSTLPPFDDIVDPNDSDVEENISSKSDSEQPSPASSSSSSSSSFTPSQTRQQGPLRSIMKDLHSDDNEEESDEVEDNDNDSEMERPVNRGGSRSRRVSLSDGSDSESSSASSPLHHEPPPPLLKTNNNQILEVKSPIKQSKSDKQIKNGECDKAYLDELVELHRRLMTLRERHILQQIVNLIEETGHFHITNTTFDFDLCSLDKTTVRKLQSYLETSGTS
Ecoli rRNA inh OD600 = also measured in Ecoli rRNA inh; calls as there; OD600 change, %; measured here: OD600 growth;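 optical density of the mix in the first replicate; 0 = DMSO median and -100 = no signal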
Ecoli rRNA inh RFP = recorded beside Ecoli rRNA inh, whose call it bears; RFP signal change, %; measured here: RFP humanized mutant strains;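 first replicate; 0 = DMSO median and -100 = no signal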
* hit, by the source's call; & = joins results of further samples. Only part of the results is shown (hit frequency here may not be typical).

SMILES | Ecoli rRNA inh | Ecoli rRNA inh OD600 | Ecoli rRNA inh RFP | MLL AF4-AF9 inh
CCOC(=O)[C@]12CCC=C1N(Cc1cccc3ccccc13)C(=O)[C@H](CC(=O)NCc1ccc(OC)c(OC)c1)C2 | -3 | 2 | 9.7 | 0.5
CCC(=O)Nc1ccc2c(c1)C(=O)N(C)C[C@@H](OC)[C@@H](C)CN(Cc1ccccc1OC)[C@@H](C)CO2 | 0 | 3 | -2.2 | -7.6
Cc1ccc(Oc2cccc3c2S(=O)(=O)N([C@H](C)c2ccccc2)C[C@@H](COCc2ccccc2)O3)cc1 | 3 | 7 | 0.7 | 0.5
Cc1noc(C)c1NC(=O)N(C)C[C@H]1OCCCC[C@@H](C)Oc2ccc(N(C)C)cc2C(=O)N([C@@H](C)CO)C[C@H]1C | 1 | 9 | -2.5 | 3.1
Cc1ccc(S(=O)(=O)Nc2ccc3c(c2)C(=O)N([C@@H](C)CO)C[C@H](C)[C@H](CN(C)S(=O)(=O)c2ccc(C)cc2)O3)cc1 | 2 | -7 | 4.3 | -0.2
CCCCN1CC(COCc2ccccc2)Oc2cccc(Oc3ccccc3)c2S1(=O)=O (configuration not stated) | 1 | 10 | 1.1 | -4.1
CCCNC(=O)N1CC2(C1)CN(Cc1cccc(F)c1)[C@@H](CO)c1[nH]c3cc(OC)ccc3c12 | 0 | 4 | 0.3 | 0.4
COc1cccc(C#Cc2ccc3c(c2)O[C@@H](CN(C)C(=O)c2ccccn2)[C@H](C)CN([C@@H](C)CO)S3(=O)=O)c1 | 0 | -4 | 8.2 | 0.2
O=C(Nc1ccc(F)cc1)N1CCCCN2[C@H](CO)[C@H](c3ccc(C#Cc4ccccn4)cc3)[C@H]2C1 | 1 | 9 | 6.4 | 5.2
O=C(c1ccc2c(c1)OCO2)N1CC(=O)N2[C@H](CO)[C@H](c3ccc(C#CCC4CCCC4)cc3)[C@H]2C1 | -11 | -35 | 22 | 5.4
COc1ccc(NC(=O)N(C)C[C@@H]2OCCCC[C@@H](C)Oc3ccc(NS(C)(=O)=O)cc3C(=O)N([C@H](C)CO)C[C@H]2C)cc1 | -3 | -8 | -0.3 | -2.3
CCC(=O)N[C@@H]1CC[C@H](CC(=O)NCc2ccccc2OC)O[C@H]1CO | 2 | 2 | -0.4 | -0.5
COCC(=O)N1[C@H](CO)[C@@H](c2ccccc2)[C@@H]1CN(C)C(=O)c1ccccc1 | 3 | 9 | -3.3 | -2.3
Cc1noc(C)c1S(=O)(=O)N(C)C[C@H]1OCc2cn(nn2)CCCC(=O)N([C@@H](C)CO)C[C@H]1C | 5 | 7 | 1.0 | -0.9
Cc1ccc(S(=O)(=O)N(C)C[C@H]2OCc3ccccc3-c3c(n(C)c4ccccc34)C(=O)N([C@@H](C)CO)C[C@H]2C)cc1 | 3 | 10 | -4.6 | 1.8
Cc1ccc(S(=O)(=O)N(C)C[C@H]2Oc3ccc(NC(=O)Cn4cnnn4)cc3CC(=O)N([C@@H](C)CO)C[C@@H]2C)cc1 | -3 | -2 | -1.4 | -3.2
O=C(C[C@H]1CC[C@H]2[C@@H](COC[C@@H](O)CN2S(=O)(=O)c2ccccc2)O1)N1CCOCC1 | 3 | 1 | 1.8 | -14
CCNC(=O)[C@H]1[C@H](CO)[C@H]2Cn3c(cccc3=O)[C@@H]1N2C(=O)C1CCC1 | 0 | 7 | -3.7 | 1.1
Cc1ccc(S(=O)(=O)Nc2ccc3c(c2)CC(=O)N([C@H](C)CO)C[C@H](C)[C@@H](CN(C)Cc2ccc(-c4ccccc4)cc2)O3)cc1 | 0 | -3 | 2.0 | 5.7
O=C(Nc1ccccc1)N1CC(=O)N2[C@H](CO)[C@H](c3ccc(C#CC4CCCCC4)cc3)[C@@H]2C1 | 1 | -4 | 1.0 | 3.7
COc1cccc(NC(=O)N2C[C@H](O)COC[C@H]3O[C@H](CC(=O)NC4CCC4)CC[C@@H]32)c1 | 1 | 9 | -3.5 | -3.7
CCCS(=O)(=O)NC(=O)C1(C)CCN(C(=O)c2cc(C)nn2C(C)(C)C)C1 (configuration not stated) | 9 | 17 | -5.5 | -12
C[C@H]1CN([C@@H](C)CO)C(=O)c2cc(-c3ccc(C#N)cc3)cnc2O[C@@H]1CN(C)C(=O)Nc1ccc(C(F)(F)F)cc1 | -17 | -12 | 0.6 | -0.8
CCOC(=O)c1c(C)[nH]c(C(=O)OCC(=O)N(CC)c2c(N)n(Cc3ccccc3)c(=O)[nH]c2=O)c1C | -6 | -14 | 11 | 1.7
Cc1ccccc1-c1cnc2c(c1)C(=O)N([C@H](C)CO)C[C@H](C)[C@H](CN(C)Cc1ccncc1)O2 | -4 | 4 | -0.4 | -2.0
NS(=O)(=O)c1ccc(Cl)c(S(N)(=O)=O)c1 | -1 | -5 | -1.4 | -3.3
N#C[C@H]1[C@@H](c2ccc(C#CC3CCCCC3)cc2)[C@H](CO)N1C(=O)Nc1ccc(F)cc1 | -8 | -30 | 5.6 | -5.0
Cc1cccc(S(=O)(=O)N2CC[C@@H]3[C@H](CO)N(C)c4ccc(Br)cc4[C@@H]32)c1 | -50 | -65 | 5.7 | 2.6
C[C@@H]1CN([C@@H](C)CO)C(=O)c2cccc(NC(=O)CCCCCC(=O)Nc3ccccc3N)c2O[C@@H]1CN(C)C(=O)Nc1ccc(C(F)(F)F)cc1 | -7 | -36 | -3.2 | 0.5
O=C(C[C@@H]1C=C[C@H](NC(=O)Nc2ccccc2F)[C@@H](CO)O1)NCc1ccc(F)cc1 | 2 | 5 | -2.6 | -0.5
Cc1noc(C)c1S(=O)(=O)Nc1ccc2c(c1)C(=O)N([C@@H](C)CO)C[C@@H](C)[C@@H](CN(C)S(=O)(=O)c1ccccc1)OCCCC[C@H](C)O2 | -2 | -8 | -2.0 | 1.7
C[C@H](CO)N1C[C@H](C)[C@@H](CN(C)S(=O)(=O)c2ccccc2)Oc2ccc(NS(=O)(=O)c3cccs3)cc2CC1=O | -4 | -5 | -1.7 | -1.2
C[C@@H]1CN([C@@H](C)CO)C(=O)c2cc(/C=C/c3ccccc3)cnc2O[C@H]1CN(C)C | 1 | 10 | -3.7 | 0.5
COCCNC(=O)C[C@H]1C[C@@H]2c3cc(NC(=O)NC4CCCCC4)ccc3O[C@@H]2[C@H](CO)O1 | 3 | 8 | -4.0 | -1.8
COc1ccc(NC(=O)N(C)C[C@@H]2Oc3c(NC(=O)Nc4ccc5c(c4)OCO5)cccc3C(=O)N([C@H](C)CO)C[C@H]2C)cc1 | -1 | 6 | -0.7 | 0.2
CCCOc1ccc(F)cc1-c1cc(C(=O)NCc2ccc(F)cc2)[nH]n1 | -3 | -40 | -3.7 | -2.9
CC(=O)Nc1cncc(-c2cccc(C(=O)NCCN(C)C)c2)n1 | 2 | 3 | 0.0 | -0.8
C[C@@H]1CN([C@@H](C)CO)C(=O)CCCn2cc(nn2)CO[C@H]1CN(C)C(=O)Nc1ccnc(N2CCOCC2)c1 | 3&2 | 3&15 | -0.2&1.9 | 0.9&-0.2&-2.6
C[C@H]1CCCCO[C@@H](CN(C)C(=O)Nc2ccccc2)[C@@H](C)CN([C@@H](C)CO)C(=O)c2cc(NS(=O)(=O)c3cccs3)ccc2O1 | 0 | -1 | 4.5 | 3.2
COc1ccc2c3c([nH]c2c1)[C@@H](CO)N(C(=O)Nc1ccc(F)cc1)CC31CN(Cc2ccc(F)cc2)C1 | -60 | -72 | -20 | 4.5
COc1ccccc1NC(=O)N1CCCCN2[C@H](CO)[C@@H](c3ccc(-c4cccc(F)c4)cc3)[C@@H]2C1 | 0 | -27 | 23 | -7.0
O=C(C1CCCCC1)N1C[C@@H]2[C@H](c3ccccc31)[C@@H](CO)N2C(=O)c1ccccc1 | -3 | -1 | 0.0 | 0.6
CCCCn1nnnc1C(c1cc2ccccc2o1)N1CCN(C(=O)OCC)CC1 (configuration not stated) | -34 | -36 | -3.2 | -8.9
C[C@@H]1CN([C@H](C)CO)C(=O)Cc2cc(NC(=O)CCN3CCOCC3)ccc2O[C@H]1CN(C)C(=O)Nc1ccc(F)cc1 | -4 | 2 | -4.8 | 0.3
CCOC1CCCc2oc(-c3ccc(OC)cc3)c(C#CCCO)c21 (configuration not stated) | 1 | -23 | -0.4 | 4.8

Part of the list above in a different format:
Compound,Ecoli rRNA inh,Ecoli rRNA inh OD600,Ecoli rRNA inh RFP,MLL AF4-AF9 inh
Cc1noc(C)c1S(=O)(=O)N(C)C[C@H]1OCc2cn(nn2)CCCC(=O)N([C@@H](C)CO)C[C@H]1C,5,7,1.0,-0.9
Cc1ccc(S(=O)(=O)N(C)C[C@H]2OCc3ccccc3-c3c(n(C)c4ccccc34)C(=O)N([C@@H](C)CO)C[C@H]2C)cc1,3,10,-4.6,1.8
Cc1ccc(S(=O)(=O)N(C)C[C@H]2Oc3ccc(NC(=O)Cn4cnnn4)cc3CC(=O)N([C@@H](C)CO)C[C@@H]2C)cc1,-3,-2,-1.4,-3.2

(more compounds)
SMILES | Ecoli rRNA inh | Ecoli rRNA inh OD600 | Ecoli rRNA inh RFP | MLL AF4-AF9 inh
COc1ccc(S(=O)(=O)N(C)C[C@@H]2OCCCC[C@H](C)Oc3ccc(NS(=O)(=O)c4cn(C)cn4)cc3C(=O)N([C@@H](C)CO)C[C@H]2C)cc1 | -1 | 10 | 0.6 | -2.5
Cc1noc(C)c1NC(=O)Nc1ccc2c(c1)CC(=O)N([C@@H](C)CO)C[C@@H](C)[C@H](CN(C)S(=O)(=O)c1ccc(Cl)cc1)O2 | 1 | -14 | -0.8 | -0.2
C[C@H](CO)N1C[C@H](C)[C@H](CN(C)S(=O)(=O)c2cn(C)cn2)Oc2c(NC(=O)C3CC3)cccc2C1=O | -2 | -1 | -2.4 | 0.6
C[C@H]1CN([C@@H](C)CO)C(=O)c2cc(/C=C/c3ccccc3)cnc2O[C@H]1CN(C)S(=O)(=O)c1ccccc1F | -8 | 17 | 0.2 | 3.8&2.4
CO[C@@H]1CN(C)C(=O)c2cc(NS(=O)(=O)c3cn(C)cn3)ccc2OC[C@@H](C)N(Cc2ccc(C(F)(F)F)cc2)C[C@H]1C | -3 | -10 | 1.2 | 4.1
CCCNC(=O)C[C@H]1C[C@H]2c3cc(NC(=O)COC)ccc3O[C@H]2[C@H](CO)O1 | 3 | 5 | -0.1 | 0.7
C[C@@H](NC(=O)C[C@H]1C=C[C@@H](NC(=O)c2cccnc2)[C@H](CO)O1)c1ccccc1 | -2 | 8 | -1.7 | -13
C[C@@H](O)C#Cc1ccc([C@@H]2[C@H](CO)N3CCCCN(S(=O)(=O)Cc4ccccc4)C[C@@H]23)cc1 | 2 | 13 | -5.0 | 0.5
C[C@@H]1CN([C@H](C)CO)C(=O)c2cc(NC(=O)Nc3ccc(F)cc3)ccc2O[C@@H]1CN(C)Cc1ccc(Cl)c(Cl)c1 | -8 | -15 | 2.3 | -2.5
CC(C)NC(=O)N1CC(=O)N2[C@H](C1)[C@H](c1ccc(C#CCN(C)C)cc1)[C@@H]2CO | 1 | 1 | -2.8 | -1.2
COCCNC(=O)C[C@@H]1CC[C@H]2[C@@H](COc3ccc(NC(=O)COC)cc3C(=O)N2C)O1 | 3 | 3 | -0.5 | -1.6
C[C@@H]1CN([C@@H](C)CO)C(=O)c2cc(NC(=O)NC3CCCCC3)ccc2O[C@@H](C)CCCCO[C@@H]1CN(C)S(=O)(=O)c1cn(C)cn1 | -1 | -3 | 2.7 | 0.4
COc1ccc(CN(C)C[C@H]2OCCCC[C@@H](C)Oc3ccc(NC(=O)Nc4ccc(F)cc4)cc3C(=O)N([C@H](C)CO)C[C@@H]2C)cc1 | 5 | 11 | -0.3 | 8.7
NC(Cc1cnc[nH]1)c1csc(Nc2ccc(C(F)(F)F)cn2)n1 (configuration not stated) | -2 | 6 | 1.0 | 19
CO[C@@H](CN(C)Cc1cc(F)ccc1F)[C@@H](C)CN([C@@H](C)CO)S(=O)(=O)c1ccc(F)cc1 | -2 | 8 | -4.9 | -3.0
C[C@H]1CN([C@@H](C)CO)C(=O)Cc2cc(NC(=O)Cc3ccccc3)ccc2O[C@@H]1CN(C)S(=O)(=O)c1ccccc1 | 1 | -4 | 3.0 | -4.5
CC(C)NC(=O)NCC[C@H]1CC[C@@H](NC(=O)Nc2ccccc2)[C@H](CO)O1 | 1 | 4 | -1.9 | 7.5
COCC(=O)Nc1ccc2c(c1)C(=O)N(C)[C@@H]1CC[C@H](CC(=O)N3CCc4ccccc4C3)O[C@H]1CO2 | 1 | 11 | -0.9 | -2.2
C[C@H]1CN([C@@H](C)CO)S(=O)(=O)c2ccc(-c3ccccc3)cc2O[C@H]1CN(C)Cc1ccccn1 | -5 | -19 | 6.3 | 2.4

Some entries already given, reduced to Ecoli rRNA inh OD600.
canonical_smiles	Ecoli rRNA inh OD600
C[C@H]1CN([C@@H](C)CO)C(=O)Cc2cc(NC(=O)Cc3ccccc3)ccc2O[C@@H]1CN(C)S(=O)(=O)c1ccccc1	-4
CC(C)NC(=O)NCC[C@H]1CC[C@@H](NC(=O)Nc2ccccc2)[C@H](CO)O1	4
COCC(=O)Nc1ccc2c(c1)C(=O)N(C)[C@@H]1CC[C@H](CC(=O)N3CCc4ccccc4C3)O[C@H]1CO2	11
C[C@H]1CN([C@@H](C)CO)S(=O)(=O)c2ccc(-c3ccccc3)cc2O[C@H]1CN(C)Cc1ccccn1	-19

High-throughput results deposited in PubChem by Broad Institute.
